# VDR inhibitor: Inhibitors of the vitamin D receptor (VDR): qHTS; VDR-SRC2-3 peptide fluorescence polarization, 2 h; Potency, µM, for the others: max response, negative = inhibition, most hits filed as inhibitors; 0.93% of 400,000 active; active means well fitted inhibition curve with a large enough effect; inconclusive means small, poorly fitted or top-dose-only effect, or another doubt; inactive means no such curve, though single readings can be large or run the other way; further: series mostly up to about 120 µM
# Target sequence (P11473 whole entry, looked up): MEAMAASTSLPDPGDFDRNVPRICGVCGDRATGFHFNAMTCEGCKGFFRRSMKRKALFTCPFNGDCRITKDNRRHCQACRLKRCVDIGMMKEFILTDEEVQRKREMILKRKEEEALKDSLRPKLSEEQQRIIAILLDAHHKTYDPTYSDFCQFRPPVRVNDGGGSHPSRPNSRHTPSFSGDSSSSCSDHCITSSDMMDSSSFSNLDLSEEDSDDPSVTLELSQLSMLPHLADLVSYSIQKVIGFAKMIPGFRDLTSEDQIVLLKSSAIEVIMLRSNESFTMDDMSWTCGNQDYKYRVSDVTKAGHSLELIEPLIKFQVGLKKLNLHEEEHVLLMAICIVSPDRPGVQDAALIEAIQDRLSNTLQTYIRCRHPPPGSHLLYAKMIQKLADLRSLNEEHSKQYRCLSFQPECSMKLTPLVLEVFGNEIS
#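 Measured by FP: displacement of SRC2-3 coactivator peptide from VDR by library compounds, following a two-hour ambient incubation.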
# * = called active by the depositor; ? = inconclusive; & = joins results of further samples. On the % scale 0 is the no-effect control and ±100 the full control effect; potency means the concentration at half of the fitted maximal effect. These rows are one share of the data; the hit share may differ from the screen's.
SMILES,VDR inhibitor
CCC(C)[C@H](NC(=O)N1c2ccccc2NC(=O)[C@@H]1C(C)C)C(=O)N[C@@H](Cc1ccccc1)C(=O)O (stereo partly drawn),-2%
S=C(c1ccc(-c2ccc(Cl)cc2Cl)o1)N1CCCC1,?
Cc1cc(Cl)ccc1OCCCC(=O)NCc1ccccn1,-10%
CCOC(=O)c1c(C)c(C(=O)NCCc2ccc(OC)cc2)c(C)n1CC,-13%
COC(=O)c1ccccc1NC(=O)C1CCC(=O)N1S(=O)(=O)c1ccc(C)cc1 (stereo not drawn),14%
COc1ccc(S(=O)(=O)NCc2ccc(C(=O)N3CCN(Cc4ccccc4)CC3)cc2)cc1,-4%
O=C(CSc1ccccc1)N1CCN(c2ccc(F)cc2)CC1,9%
COc1ccccc1C(=O)NC(=O)CSc1nnc(SC)s1,10%
O=[N+]([O-])c1cc(S(=O)(=O)N2CCCC2)ccc1N/N=C/c1cccnc1,-9%
COc1ccc(S(=O)(=O)c2cn(Cc3ccccc3)c3ccc(OC)cc3c2=O)cc1,8%
CCCN(CC1CC1)C(=O)CSc1nnc(-c2cc(-c3cccs3)nc3ccccc23)o1,0%
COc1cccc(CN2CCN(C3CCN(c4ccccc4F)CC3)CC2CCO)c1 (stereo not drawn),-24%
CC(NC(=O)C(=O)Nc1c2c(nn1-c1ccccc1)CSC2)c1ccccc1 (stereo not drawn),0%
Cc1cc(Cl)ccc1OCC(=O)OCC(=O)Nc1ccc(F)c([N+](=O)[O-])c1,14%
CCOc1cc(NC(=S)NCCc2ccccc2)c(OCC)cc1NC(C)=O,16%
COC(=O)c1c(C(=O)OC)c(-c2cccc(F)c2)n2c1CS(=O)(=O)C2,-6%
O=C(COC(=O)CNC(=O)c1cccc([N+](=O)[O-])c1)Nc1nc2ccccc2s1,-12%
S=C(CN1CCCC1=S)N1CCOCC1,-2%
COc1ccc(C(=O)CSc2nnc(C(CO)NC(=O)c3ccc(OC)cc3)n2C)cc1 (stereo not drawn),5%
Cc1ccc(NC2CCCN(C(=O)c3ccc4nccnc4c3)C2)cc1C (stereo not drawn),-3%
CCCn1c(NCc2ccco2)nc2ccccc21,-10%
COc1ccc(Cl)cc1NC(=S)N1CC(C)OC(C)C1 (stereo not drawn),5%
CCc1ccc(NC(=O)C2CCCN(S(=O)(=O)c3cccnc3)C2)cc1 (stereo not drawn),2%
CCc1ccc(NC(=O)CSc2nc(C)cc(COC)c2C#N)cc1,9%
CN(C)S(=O)(=O)c1ccc(C(=O)NCC(C)(C)N2CCOCC2)cc1,1%
Cc1ccc(C)c(Nc2nnc(-c3ccc(C)c(S(=O)(=O)N4CCCCC4)c3)c3ccccc23)c1,3%
O=C(CCc1ccccc1)Nc1nncs1,-15%
Cc1cccc(Cl)c1OCCCN1CCOCC1,-17%
C=CCn1c(-c2csc3ccccc23)n[nH]c1=S,15%
CCOC(=O)c1cnc2sc3c(n2c1=O)CCCC3,11%

# In the list so far, 5 contain an aryl thioether with sulfur outside any ring.
SMILES,VDR inhibitor
O=C(CSc1ccccc1)N1CCN(c2ccc(F)cc2)CC1,9%
COc1ccccc1C(=O)NC(=O)CSc1nnc(SC)s1,10%
CCCN(CC1CC1)C(=O)CSc1nnc(-c2cc(-c3cccs3)nc3ccccc23)o1,0%
COc1ccc(C(=O)CSc2nnc(C(CO)NC(=O)c3ccc(OC)cc3)n2C)cc1 (stereo not drawn),5%
CCc1ccc(NC(=O)CSc2nc(C)cc(COC)c2C#N)cc1,9%

# Other results:
SMILES,VDR inhibitor
CC1(C)Cc2ccccc2C(N/N=C/c2cccc(F)c2)=N1,-5%
CCCn1c(=O)c(C(=O)NNS(=O)(=O)c2ccc(C)cc2)c(O)c2ccccc21,9%
CCCN(CC(=O)Nc1ccccc1C)C(=O)c1sc2ccccc2c1Cl,0%
O=C(NCc1ccc(F)cc1)c1c2c(nc3ccccc13)CCN(Cc1ccccc1)C2,8%
Cc1ccc(-n2ncc(C(=O)NCc3cccs3)c2C2CCN(C(=O)OC(C)(C)C)CC2)cc1,3%
Cc1cccc(C(c2sc3nc(-c4ccco4)nn3c2O)N2CCN(c3ccccc3F)CC2)c1 (stereo not drawn),-5%
O=C(C1CCN(CCc2ccccc2)CC1)N1CCOCC1,-14%
Cc1cccc(NC(=S)NCc2ccc3[nH]c4c(c3c2)CCCC4)c1,-28%
COc1ccc(OCC(=O)NNC(=O)c2cccc(C)c2)cc1,21%
O=C(Nc1nccs1)[C@@H]1CCCN1C(=O)c1cccs1,-9%
N/C(=N\OS(=O)(=O)c1ccccc1)c1cccnc1,-14%
CCc1ccccc1NC(=O)CSc1nc2n[nH]c(C)c2c(=N)n1-c1cccc(OC)c1,17%
COc1ccc(N(Cc2ccccc2)S(=O)(=O)c2cccc(C(=O)Nc3ccccn3)c2)cc1,-10%
Cc1ccc(CN2CCN(CCCn3cnc4c(OCc5ccccc5)ncnc43)CC2)cc1,2%
Cc1onc(-c2ccc(Br)cc2)c1C(=O)Nc1ccc(Br)cc1F,2%
CN(CC(=O)Nc1ccc(Cl)c(Cl)c1)C(=O)CN1C(=O)NC2(CCCC2)C1=O,2%
O=C(NCc1ccc(CNC(=O)c2ccco2)cc1)c1ccco1,8%
C=CC[C@@H](CC(=O)NCCO)C(=O)N[C@H](COC(=O)[C@H](CC=C)CC(=O)OC(C)(C)C)Cc1c[nH]c2ccccc12,-6%
COC(=O)CSc1nnc(COc2ccc3ccccc3c2)o1,2%
C=CCOc1cccc(C(=O)N(C)C2CCCN(Cc3ccccc3F)C2)c1 (stereo not drawn),-3%
O=C1c2ccccc2-c2nc3ccccc3nc21,?
O=C(NC(=S)N1CCN(c2ccc(Cl)cc2[N+](=O)[O-])CC1)c1ccco1,2%
Cc1c(C(=O)C(=O)NCCCn2ccnc2)c2ccccc2n1C,-7%
COc1ccc(OC)c(N(C(=O)c2ccco2)C(C(=O)NC2CCCC2)c2ccc(N3CCOCC3)cc2)c1 (stereo not drawn),5%
Cc1oc(-c2cccc(Cl)c2)nc1CN(C)C1CCOC1 (stereo not drawn),5%
COC(=O)C(CC(C)C)NC(=O)C(Cc1ccccc1)NC(=O)C1CCCN1C(=O)OC(C)(C)C (stereo not drawn),5%
Cc1ccccc1NC(=O)CCC(=O)OCC(=O)c1cccc([N+](=O)[O-])c1,-7%
COCCN(CCOC)S(=O)(=O)c1ccc(C(=O)Nc2nc(-c3ccccc3)c(C(=O)c3ccccc3)s2)cc1,-6%
CCCCCn1cc2c(c1-c1ccc(Cl)cc1)c(=O)n(C)c(=O)n2C,-3%
CN1CCc2c(sc(N)c2C(N)=O)C1,-6%
CCCCn1c(N)c(N(CCOC)C(=O)COc2ccc(Cl)cc2)c(=O)[nH]c1=O,-4%
COc1ccc(C(=O)N2CCC3(CCN(Cc4cc(C(F)(F)F)cc(C(F)(F)F)c4)CC3)CC2)cc1,-2%
CC1CCN(c2nc3ccc(C(=O)NC(C)C)cc3s2)CC1,1%
Cc1ccc2nc(NCCCO)[nH]c2c1,-1%
COc1ccc(-c2ccc(CCC(=O)O)n2NC(=O)c2cccs2)cc1,-2%
COc1ccc(C(=O)Nc2cccc(C(C)=O)c2)cc1OC,2%
Cc1cc(C)c(S(=O)(=O)N2CCN(CCO)CC2)c(C)c1,3%
Cc1[nH]nc2c1/C(=N/O)CC(c1ccccc1)C2 (stereo not drawn),20%
CCn1c(=O)c2cc(C(=O)Nc3cc(C)on3)sc2c2ccccc21,-17%
CCN(CC(=O)Nc1ccc2c(c1)OCCO2)S(=O)(=O)c1ccc(C)cc1,22%
Cc1cc(C(F)(F)F)nc(SCC(=O)Nc2c(C)n(C)n(-c3ccccc3)c2=O)n1,26%
COc1ccc(C)cc1NC(=O)C(=O)NCCc1csc2nc(-c3ccccc3F)nn12,10%
CCN1C(=O)[C@@H]2[C@@H](c3ccc(-c4ccc(Cl)c(Cl)c4)c(OC)c3)N3CCC[C@@]3(C(=O)OC)[C@@H]2C1=O,8%
Cc1ccc(-n2ncc3c(NCCCc4ccccc4)ncnc32)cc1,5%
Cc1ccc(-c2c(C(=O)N/N=C/c3ccoc3)nnn2-c2nonc2N)cc1,-10%
COc1cc(C2NC(=O)CS2)cc(OC)c1OC (stereo not drawn),12%
Cc1cc(=O)n2[nH]c(-c3ccc(C(C)(C)C)cc3)cc2n1,-2%
Oc1ccc(Cl)cc1C1=Nc2ccccc2N=C(c2ccco2)C1,20%
O=C(CCCOc1ccc(Cl)cc1Cl)Nc1ccccn1,10%
COc1ccc2nc(NC(=O)C3CSC4(C)CCC(=O)N34)sc2c1 (stereo not drawn),-16%
COc1ccc(OC)c(CCNC(=O)CS(=O)(=O)Cc2nc(-c3ccccc3C)oc2C)c1,-3%
CCOC(=O)c1nnsc1C(OC)Oc1ccccc1 (stereo not drawn),-7%
O=C(Nc1nnc(-c2ccco2)o1)c1cccc(Cl)c1,-2%
Cn1c(=O)c2c(ncn2CC(=O)Nc2nnc(Cc3ccccc3)s2)n(C)c1=O,0%
C=CC[C@@H](CC(=O)N[C@H](CO)Cc1ccccc1)C(=O)NCCOC(=O)[C@@H](CC=C)Cc1ccc(F)cc1,-1%
Cc1nc2scc(C)n2c(=O)c1S(=O)(=O)Nc1ccc(OC(F)(F)F)cc1,-6%
CN(c1ccccc1)P(=O)(N(C)c1ccccc1)N(C)c1ccccc1,2%
Cn1c(=O)[nH]c(=O)c2c1nc(SCCN1CCOCC1)n2Cc1ccccc1,9%
O=C(CN1C(=O)NC(Cc2ccccc2)C1=O)Nc1ccc(F)c(F)c1F (stereo not drawn),-10%
COc1ccccc1C1C2CCCCC2(O)CCN1CC(=O)Nc1ccccc1 (stereo not drawn),-1%
# Next records
SMILES,VDR inhibitor
O=C(Cn1nc(-c2ccc(N3CCOCC3)c([N+](=O)[O-])c2)c2ccccc2c1=O)N1CCCCC1,11%
CC(C)(C)C(=O)CN1CCN(S(=O)(=O)c2ccc(F)cc2)CC1,19%
CC(C)(C)c1ccc(S(=O)(=O)N2CCN(CC(=O)NC(=O)NC3CCCCC3)CC2)cc1,-22%
COc1ccc(C(CC(=O)NC(C)(C)C)n2cccc2)cc1 (stereo not drawn),4%
COc1ccc(NC(=O)CSCc2cc(=O)c3cc(Cl)ccc3[nH]2)cc1,0%
COc1cccc([C@@H]2Oc3ccc(Br)cc3C[C@H]2OC(=O)NS(=O)(=O)c2ccc(C)cc2)c1,-12%
CCC/C=C1/CCCOC(C(=O)NCCN2CCOCC2)(C(F)(F)F)C1 (stereo not drawn),2%&-25%
Cc1cc(C(=O)COC(=O)c2ccc(Cl)c(S(N)(=O)=O)c2)c(C)n1C1CC1,6%
COc1ccc([N+](=O)[O-])cc1COc1cc(C)cc2oc(=O)cc(-c3ccccc3)c12,1%
CC1(C)c2ssc(=S)c2-c2ccccc2N1C(=O)CSC1=NCCS1,-14%
O=C(COc1ccc(F)cc1)NC1CC(=O)N(c2ccc3c(c2)OCCO3)C1 (stereo not drawn),-2%
Cc1ncoc1C(=O)N1CCCC(C(=O)Nc2cccc(-c3ccc(F)cc3)c2)C1 (stereo not drawn),6%
CC1=C(c2ccc(C)c(C)c2)S(=O)(=O)N=C1N1CCC(C(=O)NCc2ccc(N(C)C)cc2)CC1,-1%
Cc1ccc(NC(=O)CCC(=O)NNC(=O)COc2ccccc2)c(C)c1,-17%
CCOC(=O)c1c(-c2ccccc2)nc2cc(C)ccn12,11%
c1ccc(-c2cc(N3CCOCC3)nc3ccccc23)cc1,?
CC1CCN(C(=S)Nc2cccc(S(=O)(=O)N(C)C)c2)CC1,13%
COc1ccc(-c2nc(CSCC(=O)NCCC3=CCCCC3)c(C)o2)cc1OC,-1%
CCN1CCN(C(=O)c2ccc3c(Cl)c4c(nc3c2)CCCC4)CC1,3%
Cc1cccc(-n2cc(-c3ccccc3)c3c(NN4CCOCC4)ncnc32)c1,-4%
CC(C)C(=O)OC/C(O)=C(\C#N)c1nc2ccccc2[nH]1,-12%
Cc1cc(C)c(C#N)c(SCc2ccccc2)n1,10%
CCc1nnc(NC(=O)C2(C)COC(c3ccc(OC)cc3)OC2)s1 (stereo not drawn),-3%
CC(OC(=O)CCN=C1NS(=O)(=O)c2ccccc21)C(=O)NC1CCCCC1C (stereo not drawn),0%
CCOCCn1c(N2CCCC2)nc2c1c(=O)n(C)c(=O)n2C,3%
O=C(COC(=O)c1cncc(Br)c1)NCCC1=CCCCC1,-6%
CC[C@@]1(C(=O)OC)N[C@H](CN(C)C(=O)C2CCCCC2)[C@@H]2C(=O)N(Cc3ccccc3)C(=O)[C@@H]21,-9%
Cc1ccc2c(c1)c1c(n2C)C(C(N)=O)CCC1 (stereo not drawn),1%
O=c1[nH]c2ccc(S(=O)(=O)NCCO)cc2[nH]1,5%
O=C1CCCCC1c1cccc2ccccc12 (stereo not drawn),-17%

# Random excerpt: 2 records from the list.
SMILES,VDR inhibitor
Cc1ccc2c(c1)c1c(n2C)C(C(N)=O)CCC1 (stereo not drawn),1%
O=c1[nH]c2ccc(S(=O)(=O)NCCO)cc2[nH]1,5%

# Additional entries follow:
SMILES,VDR inhibitor
CC1CCCCN1CCCNC(=O)CCCN1C(=O)c2cccnc2Sc2ccccc21 (stereo not drawn),8%
O=c1c(CCc2ccccc2)nc2cnc(Nc3ccccc3)nc2n1C[C@H]1CCCO1,-13%
COC(=O)c1ccccc1NC(=O)CSc1nccn1C,-1%
CCCC(C)NC(C)C(=O)NC1CCCC1 (stereo not drawn),-3%
CC(C)CCNC(=O)Cc1ccc(Nc2nc(=S)[nH]c3ccccc23)cc1,-15%
CC(=O)N1CCCN(Cc2cn(-c3ccc(C)cc3)nc2-c2ccc(F)cc2)CC1,14%
COc1cc(NC(=O)c2cccc3c2C(=O)N(C2CCCCC2)C3)cc(OC)c1OC,23%&-2%

# Filtered by structure, the compounds so far containing a cyano group.
SMILES,VDR inhibitor
CCc1ccc(NC(=O)CSc2nc(C)cc(COC)c2C#N)cc1,9%
CC(C)C(=O)OC/C(O)=C(\C#N)c1nc2ccccc2[nH]1,-12%
Cc1cc(C)c(C#N)c(SCc2ccccc2)n1,10%

# High-throughput results (PubChem)
